Bioassay records deposited in PubChem by National Center for Advancing Translational Sciences (NCATS).
StopGo reporter: High Throughput Screening for Foot and Mouth Disease Virus Antivirals; human cells with a luciferase reporter of 2A StopGo recoding; control for the full effect not named in the record; Potency, µM (titrated, usually from 57.9 µM), for the others: at the top dose signal change, negative = less light; AID 1159524, 2015; actives 1.2% (n = 410,000); active = well fitted falling curve with a large enough effect; inconclusive = small, poorly fitted or top-dose-only effect; inactive = no such curve, though single readings can be large or run the other way; tested in HEK293T cells; note: % is set by controls: 0 for no effect and ±100 for the full control effect; nearly all actives have a fitted effect of over 45% in size; luciferase light after 4 h
RE007 growth inh: qHTS Assay for Inhibitors of the HIV-1 protein Vpr | S. pombe RE007 Vpr strain, BacTiter-Glo ATP luminescence, 24 h; control for the full effect not named in the record | Potency, µM (series often up to 92.2 µM), for the others: at the highest dose activity change, negative = less growth | actives 0.21% (n = 360,000) | AID 651644, 2012; active = well fitted falling curve with a large enough effect; inconclusive = small, poorly fitted or top-dose-only effect; inactive = no such curve, though single readings can be large or run the other way;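 note: % is set by controls: 0 for no effect and ±100 for the full control effect; nearly all actives have a fitted effect of over 50% in size; the assay follows cell death caused by Vpr and the record does not say whether a fall means rescue or toxicity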
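Fission yeast strain RE007, carrying one chromosomally integrated HIV-1 vpr copy, was seeded at OD 0.01 in PMG+AL medium with 23 nL pinned compound. After 24 h at 30 °C and 99% humidity, viability was read by BacTiter-Glo luminescence.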
SARS PLP yeast: qHTS of Yeast-based Assay for SARS-CoV PLP; S. cerevisiae expressing SARS-CoV PLpro, growth rescue; control for the full effect not named in the record; Potency, µM (doses to about 32.9 µM), without a hit: at the top dose activity, positive = growth rescue; actives 0.19% (n = 330,000); AID 485353, 2010; active means well fitted rising curve with a large enough effect; inconclusive means small, poorly fitted or top-dose-only effect; inactive means no such curve, though single readings can be large or run the other way; note: 0% is about no effect; nearly all actives have a fitted effect of over 55% in size; growth read by luminescence after 48 h
* = called active by the depositor; ? = inconclusive; [ ] = remark or other dose. Potency is the fitted concentration of half-maximal effect. Only part of the results is shown; the hit share may differ from the screen's.

SMILES | StopGo reporter | RE007 growth inh | SARS PLP yeast
CN(CC(=O)Nc1ccc(F)cc1)C(=O)COC(=O)c1cccc(N(C)C)c1 | 22% | 3% | 10%
CCNC(=O)N(CC)C[C@H]1N[C@@](C)(C(=O)OC)[C@H]2C(=O)N(Cc3ccccc3)C(=O)[C@@H]12 | -15% | 8% | -3%
Cc1cccc(Oc2ccccc2NS(=O)(=O)c2ccc(CCC(=O)O)cc2)c1 | -21% | 10% | 2.2µM*
O=Cc1cn(Cc2c(F)cccc2Cl)c2ccccc12 | ? | -7% | -1%
COc1ccc(-c2noc(CCC(=O)N3CCN(c4ccccc4)CC3)n2)cc1 | -11% | 8% | -10%
Nn1c(-c2ccccc2)cc(-c2ccccc2)cc1=O | 4% | 2% | 0%
Cc1ccc(S(=O)(=O)N2CCCC2)cc1C(=O)NCc1ccccc1CN1CCCC1 | -7% | -6% | -8%
CN(Cc1ccc(Cl)s1)C(=O)CSc1nnc(C2CC2)n1C1CC1 | -15% | 1% | -10%
CCN(CC)C(=O)c1[nH]cnc1C(=O)NC1CCN(C(=O)OC(C)(C)C)CC1 | -7% | 8% | -1%
Cc1ccc(S(=O)(=O)NCCCNS(=O)(=O)c2ccccc2Br)cc1 | 49%[activator] | -6% | 14%
Cc1ncc([N+](=O)[O-])n1CCOc1nonc1N | -14% | -4% | 2%
CC1CCCCC12NC(=O)N(CC(=O)NCCc1ccc(F)cc1)C2=O (stereo not given) | -16% | -10% | -32%
O=C(Cn1ccc([N+](=O)[O-])n1)N1CCCCCC1 | -7% | 18% | 1%
CC(=O)N(CN1C(=O)CCC1=O)c1ccc(Cl)c(Cl)c1 | 11µM* | 1% | 3%
CCCCNC(=O)C(=O)N/N=C/c1ccc(C(=O)OC)cc1 | -11% | 18% | -1%
O=[N+]([O-])c1ccc2c3n([n+]([O-])c2c1)CCN=C3c1ccc(Cl)cc1 | 9% | -22% | 3%
Oc1c(Br)cc(Br)cc1C=Nc1ccc2c(c1)OCCO2 | ? | -13% | -2%
C=CCOCCn1[nH]c2ccccc2c1=O | -3% | -1% | -11%
COc1ccccc1CN(C)C(=O)c1cccc(S(=O)(=O)N2CCCC2)c1 | 40%[activator] | 8% | -1%
CCCCn1c(N)c(N(CC)C(=O)C2CCN(C(=O)c3ccccc3C)CC2)c(=O)[nH]c1=O | -3% | -14% | -4%
C=CC[C@@H](Cc1ccc(F)cc1)C(=O)OC[C@@H]1CCCN1C(=O)[C@H](CC=C)CC(=O)NCCO | -17% | -6% | -10%
O=C1[C@H]2[C@@H](c3ccc(F)cc3)N3C(=O)N(c4ccccc4)C(=O)[C@@]3(Cc3ccccc3)[C@H]2C(=O)N1C1CCCCC1 | -10% | 4% | 2%
CCC(NC(=O)CCC(=O)N1CCN(S(=O)(=O)c2ccc(C)cc2)CC1)c1ccc(C)cc1 (stereo not given) | -22% | 13% | 6%
Cc1sc2nc(CN3CCCC3)nc(N3CCN(S(=O)(=O)c4cccc(F)c4)CC3)c2c1C | ? | -7% | 6%
C[C@H](CO)N1C[C@H](C)[C@@H](CN(C)S(=O)(=O)c2ccccc2)Oc2c(NC(=O)Cc3ccccc3)cccc2C1=O | -5% | -1% | 1%
O=C(Cc1cccc([N+](=O)[O-])c1)Nc1cccc(C(=O)N2CCCCC2)c1 | 10% | -4% | 5%
COC(=O)[C@]1(Cc2ccccc2)N[C@H](c2ccc(-c3ccc4c(c3)OCO4)cc2)[C@@H]2C(=O)N(C)C(=O)[C@@H]21 | -6% | -5% | -2%
CCOC(=O)C1=CN(Cc2ccco2)S(=O)(=O)NC1c1ccc(F)c(Cl)c1 (stereo not given) | 3% | 6% | 4%
CC(=O)c1c(C)[nH]c(C(=O)OCC(=O)NCc2ccc(Cl)cc2)c1C | ? | 0% | 2%
Cc1ccc(OCCC(=O)NNC(=O)c2ccccc2F)cc1 | -7% | 3% | -15%
Cc1ccc(S(=O)(=O)c2nc(-c3ccccc3)oc2N2CCCC2)cc1 | -7% | 23% | 3%
Cc1ccc(/C=N/NC(=O)c2cc3c(s2)CCCC3)o1 | 56%[activator] | 0% | -7%
CC1CCCCC12NC(=O)N(CC(=O)OCC(=O)NCc1ccc(F)cc1)C2=O (stereo not given) | -9% | -12% | 1%
Cc1csc(=O)n1CCC(=O)NCc1ccc(F)cc1 | 7% | -2% | 3%
CCN1CCN(C(=O)c2sc3ncnc(N4CCc5ccccc5C4)c3c2C)CC1 | -26% | -14% | 0%
O=C(COC(=O)c1ccc(O)cc1O)c1ccc2c(c1)OCCO2 | 12% | 11% | -1%
O=C(Nc1ccncc1)c1ccc(-c2ccccc2)cc1 | -17% | -12% | -2%
COc1ccc(-c2nnn(CC(=O)N(CCN3CCOCC3)C(C(=O)NC3CCCC3)c3ccco3)n2)cc1 (stereo not given) | 1% | 1% | 0%
COc1ccc(-c2csc(NC(=O)CCNC(=O)c3ccco3)n2)cc1OC | -20% | -3% | 0%
C=CCn1c(SCC(=O)c2ccc(O)c(O)c2)nnc1-c1ccc(OC)cc1 | -25% | -2% | -1%
CN(C)C1=NCCN1CCCC1CCCCC1 | -18% | -3% | -4%
COc1cccc(C(=O)OCC(=O)c2c(N)n(C)c(=O)n(C)c2=O)c1 | 3% | -5% | -3%
COc1ccccc1N1CCN(C(CNS(C)(=O)=O)c2cccnc2)CC1 (stereo not given) | 9% | 2% | -3%
O=C(Nc1ccc(S(=O)(=O)N2CCCCC2)cc1)c1ccc(Cl)nc1 | 40µM* | 1% | 0%
CCc1ccc([C@@H]2CC=C(C(=O)O)CN2S(=O)(=O)c2ccc(C)cc2)cc1 | 8% | 10% | 4%
C=C/C(C)=C/C[C@H]1C(=C)CCC2[C@](C)(C(=O)O)CCC[C@@]21C (stereo not given in full) | -19% | 7% | 6%
Cc1ccc(CC(NC(=O)c2ccc(C)cc2)C(=O)O)cc1 (stereo not given) | -11% | 1% | -6%
CCOC(=O)c1[nH]cnc1C(=O)N1CCN(C(=O)OC(C)(C)C)CC1 | -2% | -2% | ?
CCc1noc(C)c1C(=O)Nc1nc2c(F)cc(F)cc2s1 | 1% | -13% | 2%
COCCN(C(=S)Nc1ccc(C)c(C)c1)C(C)c1ccco1 (stereo not given) | 37%[activator] | -9% | -1%

Part of the list above, reformatted:
Molecule	StopGo reporter	RE007 growth inh	SARS PLP yeast
O=Cc1cn(Cc2c(F)cccc2Cl)c2ccccc12	?	-7%	-1%
CC1CCCCC12NC(=O)N(CC(=O)OCC(=O)NCc1ccc(F)cc1)C2=O (stereo not given)	-9%	-12%	1%
CN(CC(=O)Nc1ccc(F)cc1)C(=O)COC(=O)c1cccc(N(C)C)c1	22%	3%	10%

Later entries.
SMILES | StopGo reporter | RE007 growth inh | SARS PLP yeast
CC(C)(C)[C@@H]1COC(=O)[C@H](Cc2ccc(F)cc2)CC/C=C\C[C@H](CC(=O)N(CCO)Cc2ccccc2)C(=O)N1 | ? | -12% | -34%
COc1ccc(OC)c(/C=C/C(=O)c2ccc3c(c2)OCO3)c1 | 23% | -29% | 2%
CCOC(=O)c1c(NC(=O)COC(=O)c2ccccn2)sc(C)c1C | -6% | 1% | -3%
Cc1[nH]c2ccccc2c1SCC(=O)Nc1nccs1 | 36%[activator] | -15% | 2%
CCCN(C(=O)c1c(-c2ccccc2)noc1C)c1c(N)n(Cc2ccccc2)c(=O)[nH]c1=O | -13% | -7% | -2%
O=C(CNC(=O)c1ccc2ccccc2c1)Nc1ncccc1O | 48%[activator] | -2% | -4%
C[C@H](CO)N1C[C@H](C)[C@@H](CN(C)S(=O)(=O)c2ccc(F)cc2)Oc2ccc(NC(=O)C3CCCCC3)cc2C1=O | -24% | -15% | 5%
CSCCC(NC(=O)CCNC(=O)c1ccccc1Cl)c1nc2ccccc2[nH]1 (stereo not given) | 0% | -24% | -1%
CCN(C[C@H]1N[C@@](C)(C(=O)OC)[C@H]2C(=O)N(Cc3ccccc3)C(=O)[C@@H]12)S(=O)(=O)c1ccc(C)cc1 | -26% | -2% | 2%
CCc1ccc(C(=O)Nc2ccc(OC)c(S(=O)(=O)N3CCCCC3)c2)cc1 | ? | 14% | 0%
O=C(Nc1nccs1)c1ccccn1 | 54%[activator] | -22% | 3%
O=C(CN1CCN(S(=O)(=O)c2ccc(C(F)(F)F)cc2)CC1)N1CCNC1=O | -14% | 1% | -1%
CCOC(=O)CNC(=O)C(Cc1ccccc1)NC(=O)OCc1ccccc1 (stereo not given) | -22% | 8% | 1%
Cc1ccc(NC(=O)c2nc[nH]c2C(=O)NC2CCN(C(=O)OC(C)(C)C)CC2)cc1 | ? | 5% | 2%
COc1cccc(CNC(=O)c2ccc(Cl)c(S(=O)(=O)N3CCOCC3)c2)c1 | -14% | -6% | -6%
Cc1cccc(C)c1OCC(=O)NCC1COc2ccccc2O1 (stereo not given) | -3% | -13% | -3%
C[C@H](CO)N1C[C@H](C)[C@@H](CN(C)S(=O)(=O)c2cccs2)Oc2ccc(NC(=O)C3CC3)cc2C1=O | -14% | 7% | 2%
CCOc1ccccc1N1CCN(C(=O)c2ccc(S(=O)(=O)Nc3ccccc3)cc2)CC1 | -28% | 0% | 5%
Cc1noc(C)c1COC(=O)c1cc(S(=O)(=O)N2CCOCC2)ccc1F | -28% | 1% | 8%
Cn1cncc1C#Cc1c(-c2ccc(S(C)(=O)=O)cc2)sc2ccccc12 | ? | 1% | -5%

Sorted by molecular weight (low to high): some entries from above
SMILES | StopGo reporter | RE007 growth inh | SARS PLP yeast
Cc1ccc(NC(=O)c2nc[nH]c2C(=O)NC2CCN(C(=O)OC(C)(C)C)CC2)cc1 | ? | 5% | 2%
CCOc1ccccc1N1CCN(C(=O)c2ccc(S(=O)(=O)Nc3ccccc3)cc2)CC1 | -28% | 0% | 5%
C[C@H](CO)N1C[C@H](C)[C@@H](CN(C)S(=O)(=O)c2cccs2)Oc2ccc(NC(=O)C3CC3)cc2C1=O | -14% | 7% | 2%

Next part:
SMILES | StopGo reporter | RE007 growth inh | SARS PLP yeast
Cc1cc(=O)oc2cc(NC(=O)COc3ccccc3[N+](=O)[O-])ccc12 | 2% | 3% | -3%
O=C(CSc1nnnn1-c1ccc(Cl)cc1)NC1CCS(=O)(=O)C1 (stereo not given) | -5% | 0% | -3%
CC1=CC(=O)C(C(C)C)=CC1=NC(=O)c1ccc(C)cc1 | 8% | -8% | -2%
NC(=O)c1ccc(NC(=O)COC(=O)c2ccc(Br)o2)cc1 | -21% | 8% | -2%
CC(C)N(C(=NCc1ccccc1)NC(=O)c1ccccc1)C(C)C | 47%[activator] | 2% | -2%
CC(=O)N1CCN(C(=O)c2cccc(S(=O)(=O)N3CCN(c4ccccc4)CC3)c2)CC1 | -22% | 9% | 1%
C[C@@]12CCC3[C@@](CCC4[C@@]3(C)CCC[C@@]4(C)C(=O)NCc3ccccc3)(CC1=O)C2 (stereo not given in full) | ? | 11% | 1%
COc1ccc(CN2C(CC(=O)Nc3cccnc3)c3ccc(C(F)(F)F)cc3S2(=O)=O)cc1 (stereo not given) | 46%[activator] | -17% | 2%
Cc1cccc2cc(C#N)c(N3CCC(O)CC3)nc12 | -36% | 19% | -4%
Cc1ccc(OCC(=O)N(C)CC(=O)Nc2ccc(Cl)c(C(F)(F)F)c2)c([N+](=O)[O-])n1 | -21% | 2% | 4%
COc1ccc(-c2csc(NC(=O)CCN3C(=O)C4CC=CCC4C3=O)n2)cc1OC (stereo not given) | -29% | 3% | -2%
O=C(NCC1CCCO1)c1cc(NS(=O)(=O)c2cccs2)cc(NS(=O)(=O)c2cccs2)c1 (stereo not given) | -1% | -8% | -1%
O=C(C[C@H]1C[C@H](C(=O)N2CCOCC2)[C@@]2(CCC3CCCC3)c3[nH]c4cc(-c5ccco5)ccc4c3CCN2C1=O)NCCC1=CCCCC1 | 6% | 7% | -7%
O=[N+]([O-])c1ccc2[nH]c3c(c2c1)CCCC3 | -16% | -29% | -11%
Cc1cccc(-n2ncc3c(=O)[nH]c(SCC(=O)NCCC4=CCCCC4)nc32)c1 | 7% | 1% | 0%
Cc1ccc(S(=O)(=O)N(C)CC(=O)OCC(=O)NCCN2C(=O)CSC2=O)cc1 | -17% | 13% | 4%
CCN(CC)C(=O)[C@H]1C[C@H](CC(=O)NCCCN(C)C)C(=O)N2CCc3c([nH]c4cc(-c5ccco5)ccc34)[C@]12C | -6% | -4% | ?
CCCCn1c(N)c(N(C(=O)CSc2nnc(C)n2-c2ccccc2)C2CCCC2)c(=O)[nH]c1=O | -12% | -3% | 1%
COC(=O)[C@]1(C)N[C@H](CN(C)S(=O)(=O)c2ccc(C(C)(C)C)cc2)[C@@H]2C(=O)N(C)C(=O)[C@@H]21 | -26% | -7% | 3%
O=C(COC(=O)c1ccc(Cl)c(S(=O)(=O)N2CCOCC2)c1)Nc1ccc2[nH]c(=O)[nH]c2c1 | -17% | 4% | -1%[6.58 µM]
CNC(=O)C1CN(C(=O)c2cccc(S(=O)(=O)N3c4ccccc4CC3C)c2)c2ccccc2O1 (stereo not given) | 0% | -2% | 6%
